Screening data (PubChem)
Calb FLC – C. albicans growth inhibition with fluconazole, primary screen, CaCi-2 strain, Alamar Blue fluorescence; C. albicans CaCi-2 (fluconazole-resistant clinical isolate) + fluconazole, 48 h; growth inhibition, % (concentration not given with the values); 0.57% of 300,000 active;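 active = most replicates above 75%; inconclusive = exactly half above 75%; inactive = most below 75%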;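 also: all wells also contain fluconazole at 8 µg/ml as a sub-toxic cotreatment; 0% = median of DMSO wells and 100% = median of geldanamycin control wells; wells of about 8 µL received 7.5 nL stock; the first replicate is given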
T cruzi repl – inhibitors of intracellular T. cruzi growth, primary screen, luminescence, NIH3T3 host cells | 1.4% of 300,000 active | T. cruzi beta-gal in NIH3T3, 90 h | inhibition, % (concentration not given with the values);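 active = mean inhibition across valid replicates above about 55%, limit read from the data; inconclusive = mean below that limit but half or more replicates reach it; inactive = mean below it, under half of replicates reach it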;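 also: signal also drops with host cell toxicity which is not excluded here; 0% = plate median of DMSO wells and 100% = zero luminescence signal; higher percent means less beta-gal luminescence so fewer parasites; stock transfer was 50 nL into about 50 µL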
RanGTP-Imp inh – inhibitors of RanGTP-importin-beta interaction, primary screen, biochemical, FRET, CFP-Ran, YFP-importin-beta, homogeneous; Ran GTPase (GTP-bound) - importin-beta complex; cell-free CFP-Ran/YFP-importin-beta FRET ratio; inhibition, % (concentration not given with the values); 1.1% of 300,000 active;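 active = most replicates above 15%; inconclusive = exactly half above 15%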;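 also: 0% = DMSO wells and 100% = Ran loaded with GDP instead of GTP; wells of about 40 µL received 100 nL stock; the first replicate is given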
A1 inh – caspase 3/7 activation in MEF A1-2A-BIM cells, primary screen, A1 inhibitor project, cell-based, luminescence, HTS | caspase activation, % (test concentration not listed) | Caspase-Glo 3/7 luminescence, 3 h; percent of clofoctol response, vehicle zero | 0.066% of 330,000 active;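 active = over half of replicate activation scores above 10%, or exactly half above 10 with the replicate mean above 10; inconclusive = replicate mean below 10 yet half the replicates above 10; inactive = over half of replicates below 10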;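 also: wells of about 30 µL received 50 nL stock; many hits fall short of the cut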
LANA-H2A inh – blockers of LANA interaction with H2A/H2B – biochemical, FP readout, HTS, primary screen; cell-free LANA-H2A/H2B peptide, fluorescence polarization; Protein LANA1 (Human herpesvirus 8 type P (isolate GK18)), Q9QR71; inhibition, % (concentration not given with the values); 0.6% of 320,000 active; in the data active = inhibition mostly above about 10%, no sharp cut-off; inactive = mostly below about 6.7%;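 also: stock transfer was 7.5 nL into about 10 µL; 0% = median of vehicle wells and 100% = median of positive control wells; one replicate is shown; the record names a cut of 25% in any replicate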
UCH37 inh – inhibitors of human UCH37 deubiquitinase, primary screen, biochemical, Ub-AMC cleavage, fluorescence; inhibition, % (concentration not given with the values); purified proteasome/UCH37; 0.33% of 330,000 active; AID 588478, 2011; Ubiquitin carboxyl-terminal hydrolase isozyme L5 (Homo sapiens), Q9Y5K5;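 active = mean of two replicates above 20%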;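 also: 0% = compound-free wells with enzyme and 100% = wells lacking proteasome; stock transfer was 100 nL into about 20 µL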
Target sequence (Q9Y5K5 whole entry, looked up): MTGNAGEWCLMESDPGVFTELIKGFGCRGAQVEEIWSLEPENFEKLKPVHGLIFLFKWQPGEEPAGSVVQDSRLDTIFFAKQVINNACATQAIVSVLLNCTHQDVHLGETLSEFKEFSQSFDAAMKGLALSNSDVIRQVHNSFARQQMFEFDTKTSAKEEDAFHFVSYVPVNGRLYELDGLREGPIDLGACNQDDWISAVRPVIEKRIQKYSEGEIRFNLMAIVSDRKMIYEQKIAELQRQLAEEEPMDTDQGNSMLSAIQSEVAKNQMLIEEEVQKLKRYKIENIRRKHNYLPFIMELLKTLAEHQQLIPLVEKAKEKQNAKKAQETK
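system = Proteasome-associated human UCH37 deubiquitinase | amount = 0.15 nM proteasome as dispensed | medium = pH 7.4 Tris-HCl (50 mM) with ovalbumin, ATP-MgCl2, DTT | incubation = 30 min preincubation with enzyme, 25 min cleavage at room temperature | detection = AMC fluorescence 355/460 nm | read-out basis = percent inhibition | controls = no-proteasome and no-compound wells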
B2AR ag – beta2AR agonists driving receptor internalization, primary screen, cell-based, FAP fluorogen, flow cytometry; Am2.2-beta2AR cells; reference of the scale not given here; 0.43% of 340,000 active; AID 504454, 2011; response, % (concentration not given with the values); Beta-2 adrenergic receptor (Homo sapiens), P07550;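 active = response above a set limit, near 3 SD of response in nonfluorescent compounds, cut at about 42% in these data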;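 also: stock transfer was 100 nL into about 11 µL; a reference agonist was the positive control; negative values mostly stem from fluorescent compounds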
Target sequence (P07550 whole entry, looked up): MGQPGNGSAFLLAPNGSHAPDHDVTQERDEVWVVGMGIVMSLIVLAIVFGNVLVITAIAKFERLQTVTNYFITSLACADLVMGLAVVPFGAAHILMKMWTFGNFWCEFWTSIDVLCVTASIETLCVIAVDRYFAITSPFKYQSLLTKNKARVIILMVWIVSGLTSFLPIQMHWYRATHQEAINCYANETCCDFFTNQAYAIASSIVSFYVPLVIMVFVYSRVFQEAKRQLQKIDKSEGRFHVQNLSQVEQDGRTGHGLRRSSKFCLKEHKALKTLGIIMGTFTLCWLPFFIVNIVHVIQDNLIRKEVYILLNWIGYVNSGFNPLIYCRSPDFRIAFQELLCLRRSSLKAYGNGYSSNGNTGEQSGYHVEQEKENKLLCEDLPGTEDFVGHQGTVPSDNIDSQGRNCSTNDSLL
Beta cell apopt – inhibitors of cytokine-induced beta cell apoptosis, primary screen, luminescence; AID 435005, 2010; 0.8% of 300,000 active; INS-1E cytokine-induced death, ATP luminescence, 48 h; percent of positive-control rescue, neutral wells zero; protection from apoptosis, % (no concentration beside the values);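 active = all replicates at 75% or more, or half of them and the mean; inconclusive = half reach 75% but not the mean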;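 also: 0% = cytokine-treated negative control wells and 100% = positive control rescue; higher means more ATP so stronger rescue from cytokine killing; wells of about 40 µL received 100 nL stock; the first replicate is given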
* hit, by the source's call; ? = inconclusive; / = not tested or not shown; & = joins results of further samples. An excerpt; count on the stated rates, not on these rows.

SMILES	Calb FLC	T cruzi repl	RanGTP-Imp inh	A1 inh	LANA-H2A inh	UCH37 inh	B2AR ag	Beta cell apopt
Cc1cc(N2C(=O)C3CCCN3C2c2ccc(Cl)c(Cl)c2)no1 (configuration not stated)	4	-11	-3.3	-0.3	2.2	2.6	-1	-5
COc1ccccc1CCNC1CCC(C(C)(C)C)CC1 (configuration not stated)	7	59*	6.8	1.7	4.9	0.8	-4	10
CCCCC(=O)N/N=C/c1c(O)n(CC)c(=S)n(CC)c1=O	-9	13	-1.8	-0.7	-4.3	8.2	9	-35
C[C@]12CC(=O)CC1CCC1C2CC[C@@]2(C)C1CC[C@@H]2O (some centres not stated)	5	-1	5.0	0.9	4.7	-1.8	-6	-3
Cc1ccc2c(c1)C1C[N+](C)(CC(=O)c3ccc(Cl)cc3Cl)CCC1N2C(=O)c1ccc(F)cc1 (configuration not stated)	/	/	/	-1.5	-2.0	4.3	5	-8
CN1CCc2cc(O)cc3c2[C@H]1Cc1ccc(O)c(O)c1-3	/	-11	3.7	-0.3	-2.6	-0.6	-9	-3
CCN(CC)S(=O)(=O)c1cccc(N=Nc2c(O)n(CC)c(=S)n(CC)c2=O)c1	11	-12	-0.4	-0.7	-3.9	2.4	3	8
O=S(=O)(c1ccc(F)cc1)N1CCCC1c1cccnc1 (configuration not stated)	8	3	-0.1	1.9	0.8	5.4	0	1
COC(=O)C1=C(c2cccc(OCc3ccccc3)c2)C[C@@H]2CC[C@H]1N2C(=O)NCc1cc(C)oc1C(F)(F)F	/	/	/	-1.4	-1.8	0.1	8	1
CC(C)n1c(O)c(C2c3cc(Cl)ccc3Oc3[nH]c(=O)n(C(C)C)c(=O)c32)c(=O)[nH]c1=O (configuration not stated)	-2	-28	22*	/	/	8.1	59*	/
CCOC(=O)C1=C(C)OC(N)=C(C#N)C12C(=O)N(C)c1ccccc12 (configuration not stated)	-1	-20	4.0	0.5	0.6	1.8	4	-9
O=P1(Oc2ccccc2)C[C@@H](O)[C@@H](O)[C@H](COCc2ccccc2)O1 (some centres not stated)	23	-12	1.6	-0.4	-3.1	-14	3	0
CCCn1ncc(CN2CCCC(C(=O)c3cccc(OC)c3)C2)c1C (configuration not stated)	0	68*	-1.4	-0.9	2.2	4.5	9	-7
C[C@]12CCC3C(CC[C@H]4C[C@H](OC(=O)c5cccnc5)CC[C@]34C)C1CCC2=O (some centres not stated)	/	/	/	-0.1	-0.9	5.3	8	12
C[C@]12CC[C@@H]3c4ccc(O)c(O)c4CC[C@H]3[C@@H]1CC[C@@H]2O	/	-4	?	-0.3	-3.7	1.1	9	-1
COC(=O)C1=C(c2ccc(OC)c(OC)c2)C[C@@H]2CC[C@H]1N2C(=O)N1CCOCC1	/	/	/	-0.2	4.7	1.6	-3	-1
COc1ccc(CN2CCN(c3ccccc3F)CC2)c(OC)c1	-29	-10	2.0	0.2	0.3	2.1	/	-1
COc1cccc(CN2CCN(C(=O)COc3ccc4ccccc4c3)CC2)c1	-5	-7	2.3	-0.4	-0.5	5.4	-5	-3
CC(=NCCN1CCCCC1)c1c(O)[nH]c(=O)[nH]c1=O	-19	-3	?	0.4	-2.6	0.3	1	-4
Cc1cccc(CN(C)C)c1OC(=O)N(C)C	8	-1	1.0	-1.1	-0.2	4.5	0	-7
C/C=C/CC1(CC)C(=O)NC(=S)NC1=O	10	-15	2.5	-2.1	-0.9	/	-5	-6
N#CCCn1cc(C(=O)NCc2ccccc2)c(-c2ccc3c(c2)OCCO3)n1	10	7	6.9	-0.8	-8.7	5.1	-2	-8
O=S(=O)(c1ccc(O)cc1)c1ccc(O)cc1	-2	-25	0.3	1.2	3.4	0.1	-5	-2
CN(C)CCCNCC(=O)Nc1ccc(Cl)cc1C(=O)c1ccccc1	-4	0	-2.9	-0.4	1.0	/	8	1
CC(C)c1cc(Br)c(NC(=O)Nc2cccnc2)c(Br)c1	-8	-5	-0.3	0.2	7.0	-0.7	-7	-5
CC1COC2N=C(N[N+](=O)[O-])NC2O1 (configuration not stated)	6	-8	-1.3	-0.6	-12	0.2	-1	-3
CCC(C)C1NC(=O)C(C(C)=O)=C1O (configuration not stated)	-5	-14	-1.3	1.6	3.0	3.4	18	/
CN(C)CC1CSCCC1(O)c1cccc(Cl)c1 (configuration not stated)	5	-4	-1.0	-0.4	-0.3	1.4	-2	-1
COC(=O)C1=C(c2ccccc2)C[C@@H]2CC[C@H]1N2C(=O)NC1CCCCC1	-24	7	-2.0	1.7	-1.0	6.0	6	5
C=CCC1C(=O)NC(=S)NC1=O	-2	-6	-0.4	0.3	-1.8	1.6	12	0

Gathered by group, those above with a Cl atom
SMILES	Calb FLC	T cruzi repl	RanGTP-Imp inh	A1 inh	LANA-H2A inh	UCH37 inh	B2AR ag	Beta cell apopt
Cc1cc(N2C(=O)C3CCCN3C2c2ccc(Cl)c(Cl)c2)no1 (configuration not stated)	4	-11	-3.3	-0.3	2.2	2.6	-1	-5
Cc1ccc2c(c1)C1C[N+](C)(CC(=O)c3ccc(Cl)cc3Cl)CCC1N2C(=O)c1ccc(F)cc1 (configuration not stated)	/	/	/	-1.5	-2.0	4.3	5	-8
CC(C)n1c(O)c(C2c3cc(Cl)ccc3Oc3[nH]c(=O)n(C(C)C)c(=O)c32)c(=O)[nH]c1=O (configuration not stated)	-2	-28	22*	/	/	8.1	59*	/
CN(C)CCCNCC(=O)Nc1ccc(Cl)cc1C(=O)c1ccccc1	-4	0	-2.9	-0.4	1.0	/	8	1
CN(C)CC1CSCCC1(O)c1cccc(Cl)c1 (configuration not stated)	5	-4	-1.0	-0.4	-0.3	1.4	-2	-1

Next entries
SMILES	Calb FLC	T cruzi repl	RanGTP-Imp inh	A1 inh	LANA-H2A inh	UCH37 inh	B2AR ag	Beta cell apopt
Nc1ccc(C2(c3ccc(N)cc3)c3ccccc3-c3ccccc32)cc1	39	-4	-0.6	-0.2	-0.3	2.9	17	-15
O=[N+]([O-])c1cc(-c2ccc([As](=O)(O)O)cc2)ccc1[As](=O)(O)O	-6	-5	-1.1	0.8	-0.3	/	/	-6
Oc1c(Br)cc(Br)cc1Oc1ccc(Br)cc1Br	87*	-9	-5.8	-0.1	-0.1	/	/	9
COC(=O)C1=C(c2ccc3ccccc3c2)C[C@@H]2CC[C@H]1N2C(=O)N1CCC(O)CC1	/	/	/	0.4	-2.4	3.4	2	0
CC1(O)CCN2C(=O)CCc3cccc1c32 (configuration not stated)	/	/	/	0.4	12*	12	5	-24
O=C(Cc1cccc(C(F)(F)F)c1)N1CCN(CC(=O)N2CCCC2)CC1	/	/	/	1.2	3.3	2.0	9	-1
CCOC(=O)C(O)(c1ccc(N(CC)S(=O)(=O)c2ccccc2)cc1)C(F)(F)F (configuration not stated)	6	1	?	-0.2	-2.2	-1.1	3	4
Cn1c(=O)c2c(nc(N/N=C/c3c(O)n(C4CCCCC4)c(=S)[nH]c3=O)n2C)n(C)c1=O	-3	2	2.6	0.9	-0.2	8.5	3	-2
CCC1=C(C)C(N2CCOCC2)=NP(N2CCOCC2)(N2CCOCC2)=N1	6	13	1.3	-0.1	3.9	2.0	2	3
CCCCSP1(=S)NCCCN1	-4	-11	-3.3	0.0	-1.1	6.4	-7	-4
O=C(COc1ccc(Cl)cc1)NC1CN2CCC1CC2 (configuration not stated)	-5	7	0.7	0.3	0.5	1.5	-3	2
CCOP(=S)(OCC)SCOC(=O)NCC(=O)OC	-2	-14	-1.8	0.8	-6.1	3.4	6	-1
Nc1c(C(=O)OCc2ccccc2)c2nc3ccccc3nc2n1Cc1cccs1	6	48	-0.5	1.3	2.3	-193	4	-19
CCCCCSc1cc(O)c(C(CNC)C(C)C)cc1OC (configuration not stated)	-30	18	-1.0	-1.4	/	-22	2	20
O=C1NC(=O)C(=Cc2ccsc2)C(=O)N1	-13	3	-2.3	0.6	5.7	/	-3	-2
CCCCCn1c(=O)c(C(=O)NCc2ccccc2Cl)c(O)c2ccccc21	-5	-56	0.2	-0.4	3.0	-7.1	7	101*
CCCC(=O)c1ccc(CP(=O)(OCC)OCC)o1	-2	7	0.5	0.8	9.6	2.0	-6	-4
CC(C(=O)c1ccc(Cl)cc1Cl)n1cncn1 (configuration not stated)	-2	-10	0.3	1.1	-1.1	-1.2	-10	-5
CCN1C[C@@]2(COC)C3[C@@H](OC)[C@H]4[C@@H]1[C@@]3(C1C[C@H]3[C@H](O)C1[C@]4(O)C[C@H]3OC)[C@@H](OC)C[C@H]2O (some centres not stated)	-2	-8	1.9	0.3	3.3	1.7	1	-3
CNP1(NC)=NC(C(F)(F)F)=NC(C(F)(F)F)=N1	21	-3	5.5	0.0	-2.5	1.0	-3	-5
C/C(=C/C=C/[C@@H](C)C(=O)O)[C@H]1CN[C@H](C(=O)O)[C@H]1CC(=O)O	/	/	/	-0.1	3.9	-2.7	6	0
COc1ccc(NC2=NCC(C)S2)cc1 (configuration not stated)	-5	-30	0.2	-0.3	-5.2	2.4	4	-1
C=C(C)[C@@]12OC3(c4ccccc4)O[C@@H]1C1[C@@H]4O[C@]4(CO)[C@@H](O)[C@]4(O)C(=O)C(C)=C[C@H]4[C@@]1(O3)[C@H](C)[C@H]2OC(=O)/C=C/C=C/c1ccccc1 (some centres not stated)	-2	57*	-1.0	0.2	-2.9	3.9	112*	3
Cn1c2ccccc2c2c(C(=O)N3CCC4(CC3)OCCO4)cn(C3CCCC3)c(=O)c21	0	11	-1.0	-0.3	-1.9	-111	4	3
c1ccc2c(c1)OCC(C1=NCCN1)O2 (configuration not stated)	-6	-4	-2.6	0.7	-7.0&-9.6	2.4	-7	/
c1ccc(-n2ccnc2)cc1	26	-16	-0.8	-0.1	-1.9	1.0	-22	2
[N-]=[N+]=NC1C[C@H](n2ccc(=O)[nH]c2=O)O[C@@H]1CO (some centres not stated)	-7	-18	4.4	1.1	-0.1	4.3	-7	-9
Cn1c(C(=O)N2CCC(C(=O)N3CCC4(CC3)OCCO4)CC2)cc2sccc21	6	2	-2.6	0.9	-4.3	1.2	-7	0
COc1ccc(C(=O)CC2(CC(=O)c3ccc(OC)cc3)C(=O)N(C)C(=O)N(C)C2=O)cc1	-1	0	1.8	-1.0	3.2	0.3	-6	-7
COP(=O)(NS(=O)(=O)c1ccccc1)OC	-26	-2	1.3	-0.4	0.7	1.1	7	-10
O=C1NC(=O)N(Cc2ccc(F)cc2)C(=O)/C1=C\C=C\c1ccco1	8	-57	?	0.7	-5.0	-4.4	48*	-2
CN1C(=O)C(Cc2ccsc2)C(=O)N(C)C1=O	2	-1	?	0.4	4.3	2.2	1	0
CCc1ccc(CNCCc2ccccc2F)cc1	6	35	-1.2	1.1	2.4	4.5	9	/
